PV pol inh – inhibitors of poliovirus RNA polymerase binding and polymerization | P03300 | poliovirus polymerase elongation, fluorescence polarization; stronger effect = lower value | % elongation, % (compound at 16.7 µg/mL) | 150,000 compounds, 0.66% hits; in the data active means % elongation below about 90%; further: some results filed as inactive read as strong as hits
Target sequence (P03300 1749-2209 limits assumed): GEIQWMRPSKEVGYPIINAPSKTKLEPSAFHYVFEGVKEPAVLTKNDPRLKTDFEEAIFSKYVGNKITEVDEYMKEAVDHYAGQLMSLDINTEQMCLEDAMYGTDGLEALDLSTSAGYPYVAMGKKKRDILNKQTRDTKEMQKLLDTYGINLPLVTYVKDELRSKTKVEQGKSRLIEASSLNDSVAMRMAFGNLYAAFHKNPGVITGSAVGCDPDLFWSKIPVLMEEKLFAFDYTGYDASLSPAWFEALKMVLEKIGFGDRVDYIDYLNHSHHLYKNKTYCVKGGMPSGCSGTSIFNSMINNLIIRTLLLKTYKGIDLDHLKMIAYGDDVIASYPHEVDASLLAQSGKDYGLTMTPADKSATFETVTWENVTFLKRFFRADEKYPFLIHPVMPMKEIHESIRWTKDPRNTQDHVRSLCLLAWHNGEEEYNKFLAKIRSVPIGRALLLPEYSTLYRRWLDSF
Mtb MenB inh – blocks the Mycobacterium tuberculosis MenB enzyme; inhibition, %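 (about 12 µg/mL by stock and volumes)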; AID 540299; MenB enzyme assay, absorbance read-out; some hits fall short of the stated cut; 100,000 compounds, 0.43% hits;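 active means mean of two replicates above 30%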;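 further: 0% = no compound and 100% = wells with inactive enzyme; the first replicate is given; strong numbers were not always called active; inactives centre near -10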
MbtI inh – blocks the Mycobacterium tuberculosis siderophore enzyme MbtI; P9WFX0; inhibition, %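 (about 17 µg/mL by stock and volumes)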; purified MbtI enzyme, fluorescence intensity read-out; 100,000 compounds, 0.89% hits;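 active means above 50% in both replicates, above 80% if mildly self-fluorescent; inactive means the rest, strongly fluorescent compounds included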;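 further: 0% = mean of negative and 100% = mean of positive controls; one replicate is shown; some compounds called inactive have numbers as strong as hits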
Target sequence (P9WFX0 whole entry, looked up): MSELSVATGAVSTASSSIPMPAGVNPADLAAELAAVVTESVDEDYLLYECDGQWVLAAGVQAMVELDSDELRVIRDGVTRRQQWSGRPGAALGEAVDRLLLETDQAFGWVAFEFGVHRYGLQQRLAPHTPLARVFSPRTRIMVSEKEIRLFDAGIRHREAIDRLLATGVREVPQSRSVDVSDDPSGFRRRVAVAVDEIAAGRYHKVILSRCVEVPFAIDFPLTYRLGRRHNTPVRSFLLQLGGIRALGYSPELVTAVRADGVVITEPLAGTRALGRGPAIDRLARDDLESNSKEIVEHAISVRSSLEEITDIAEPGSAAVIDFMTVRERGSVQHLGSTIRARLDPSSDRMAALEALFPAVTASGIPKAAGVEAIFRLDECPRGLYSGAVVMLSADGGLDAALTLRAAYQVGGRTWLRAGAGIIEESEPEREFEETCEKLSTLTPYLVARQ
PV pol inh intensity – further read-out of PV pol inh, marked with its call; % elongation; measured here: total intensity read-out; formula for this scale not given here;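 total fluorescence in place of polarization; lower means less elongation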
An asterisk follows results filed as active; . = not tested or not shown; & = joins results of further samples; ! = not confirmed by another sample.

Compound	PV pol inh	Mtb MenB inh	PV pol inh intensity	MbtI inh
CC(C)NC(=O)N(Cc1cccnc1)Cc1ccc(Cl)cc1Cl	100.0	-14.1	105.0	-6.1
COc1cccc(CNC23CC4CC(CC(C4)C2)C3)c1OCc1ccccc1F	103.0	-17.4	110.0	.
C[C@H](NCCc1ccc(O)cc1)[C@H](O)c1ccc(O)cc1	102.0	0.7	100.0	-56.2
NC(=O)NC(=O)CSc1ccccc1	103.0	-9.3	107.0	0.0
COc1ccccc1NC(=O)NC1CC2CCCC(C1)N2C1CC1 (stereo not given)	105.0	-9.3	106.0	-26.3
O=S(=O)(/C=C/c1ccccc1)N1CCN(Cc2nnc(-c3ccccc3)o2)CC1	108.0	13.1	103.0	6.8
COC(=O)Cc1[nH]n(-c2ccccc2)c(=O)c1C(C)=Nc1ccccc1	100.0	3.3	114.0	8.0
N#Cc1ccc(NC(=O)CON2C(=O)CCC2=O)cc1Cl	108.0	-1.5	110.0	-6.5
O=C1CCCCC1Nc1ccccc1 (stereo not given)	99.0	24.1	101.0	-26.3
CNc1c(NC(C)=O)c(=O)oc2ccccc12	103.0	-9.2	107.0	.
CCOc1ccc(CN(C)C(=O)CNC(C)c2ccccc2OC)cc1 (stereo not given)	93.0	11.5	92.0	22.9
Cc1cc(C(=O)COC(=O)c2cnccn2)c(C)n1-c1ccc2c(c1)OCO2	106.0	3.7	111.0	-2.5
CC1CCCC(C)N1C(=O)COC(=O)COc1ccc(C#N)cc1 (stereo not given)	101.0	-15.7	103.0	-3.5
NS(=O)(=O)c1ccc(CNC(=O)NC23CC4CC(CC(C4)C2)C3)cc1	102.0	9.2	103.0	2.8
O=C(O)CC1C(=O)NCCN1CC1CCCCC1 (stereo not given)	102.0	-5.9	100.0	-1.8
CC(=O)Nc1ccc(S(=O)(=O)N(C)C2CCCCC2)cc1	101.0	1.8	111.0	.
CCOC(=O)c1oc2ccccc2c1CN(C)Cc1ccccc1F	99.0	-12.0	97.0	-4.2
CS(=O)(=O)NNc1nccc(-c2cccnc2)n1	101.0	-18.0	102.0	87.3*
O=C(CCCSc1nnc(-c2ccccc2)o1)c1ccc(Br)cc1	105.0	-11.8	109.0	-10.0
Cc1ccoc1C(=O)NCc1occc1C(=O)O	102.0	9.9	100.0	-0.8
CC1CCCC(C)N1C(=O)C1CCCCC1C(=O)O (stereo not given)	101.0	-14.9	104.0	-12.7
O=C(NCc1nc2ccccc2c(=O)[nH]1)c1ccccc1	104.0	.	102.0	-4.2
CCCCN(CC)S(=O)(=O)c1ccc(C(=O)Nc2nnc(COC)o2)cc1	101.0	2.1	103.0	12.1
N#Cc1c(N)nc2c3c1NC(O)(c1ccccc1)C(C#N)C3c1cc(Cl)ccc1O2 (stereo not given)	103.0	1.4	104.0	11.9
COc1ccccc1CC(=O)Nc1c[nH]c(=O)[nH]c1=O	99.0	-8.5	100.0	-6.2
O=C(C1CCCN(S(=O)(=O)c2ccc3nc(-c4ccccc4)[nH]c3c2)C1)N1CCOCC1 (stereo not given)	104.0	-13.7	101.0	-37.5
Cc1ccc(C)c(Cn2c3ccccc3c3cnn(CC(=O)NCCN4CCN(C)CC4)c(=O)c32)c1	103.0	-43.0	103.0	79.2
CSC1=NC2(CCN(C(=O)OC(C)(C)C)CC2)N=C1c1ccccc1	103.0	2.1	103.0	-6.8
Cc1[nH]c(=O)[nH]c(=O)c1NC(=O)CSc1nc2c(C)cccc2cc1C#N	99.0	-4.0	99.0	-1.1
CN(C)C(=O)Oc1ccc2ccc(OC(=O)N(C)C)cc2c1	102.0	-16.9	103.0	1.4
COC(=O)c1ccc(/C=N/O)cc1	103.0	5.4	104.0	6.7
Cc1ccc(C)n1-c1ccc(OC(F)F)cc1	125.0	-8.5	132.0	-12.5
O=C(c1cc2ccccc2c(=O)o1)N1CCN(C(c2ccccc2)c2ccccc2)CC1	101.0	-14.3	102.0	8.9
CNNC(=S)NCCC1=CCCCC1	101.0	-12.5	97.0	-7.0
Cc1cccc(NC(=O)CSc2nc3c(c(-c4ccco4)c2C#N)CCCC3)c1C	105.0	-26.2	109.0	19.9
CCCCN(C(=O)c1cccs1)C1CCS(=O)(=O)C1 (stereo not given)	105.0	-18.4	103.0	-7.5
CC(C)(C)C(=O)N1CCN(Cc2ccccc2)CC1	98.0	-11.9	82.0	.
N#Cc1ccc(C(=O)OCC(=O)NC2CC2)cc1	100.0	-137.8	103.0	-9.9
CC1CCN(C(=O)Cn2cc(C#N)c3ccccc32)CC1	103.0	-0.5	109.0	.
CCN(CC(=O)NCc1cccs1)C(=O)Cc1csc(-c2ccccc2)n1	101.0	-15.8	108.0	2.5
O=C1CC(c2ccccc2)Cc2nc(NC3CC3)ncc21 (stereo not given)	105.0	-37.1	101.0	-7.8
N#C/C(=C/c1ccc(Br)o1)c1ccc(C(=O)O)cc1	103.0	-25.1	109.0	-11.0
COc1ccc2c(c1)CCc1c(C(=O)Nc3cccnc3)noc1-2	101.0	-19.6	103.0	17.5
Cc1ccc2[nH]c(CCN(C)C)c(CC#N)c2c1	101.0	10.3	105.0	.
COc1ccccc1S(=O)(=O)Cc1ccc(C(=O)NC(C)c2ccc3c(c2)OCCO3)o1 (stereo not given)	99.0	-6.7	101.0	15.7
Cc1ccc(-c2nnc(SCc3c(C)cc(C)cc3C)o2)cc1	104.0	-33.0	101.0	-3.8
CCc1cccc2c(CC(=O)O)c(C)[nH]c12	100.0	-33.4	103.0	12.2
CCNc1nc(NCC)n2c(SCC(=O)NCC3CCCCC3)nnc2n1	103.0	-9.0	107.0	-7.3
COc1ccc(-c2nc(SC)n(C(=O)c3ccccc3OC)n2)cc1	103.0	-48.3	99.0	-2.5
CCCCn1c(SCC(=O)NCC)nc2cc(S(=O)(=O)N3CCCCC3)ccc21	104.0	-13.5	102.0	-4.2
CC1=C(/C=C/C(C)=C/C=C/C(C)=C\C(=O)O)C(C)(C)CCC1	101.0&100.0&100.0&99.0	49.8*!	105.0&105.0&103.0&102.0	-11.6&10.0&-11.4
O=C1CS/C(=C/C(=O)c2ccc(Cl)cc2)N1	101.0	-67.6	101.0	18.6
CN1CCN(C2CC(=O)N(C3CCCCC3)C2=O)CC1 (stereo not given)	102.0	-29.2	100.0	0.2
Cc1ccc(C)n1-c1nn(S(C)(=O)=O)c2cccc(F)c12	103.0	-5.6	108.0	-9.4
CCCn1nc(C(=O)Nc2nnc(C3CC3)s2)c2ccccc2c1=O	102.0	-18.6	102.0	-1.8
Cc1nonc1-c1cn2cc(Br)cc(Br)c2n1	99.0	-10.3	103.0	-21.5
O=C(NCC(=O)N1CCN(C(=O)c2ccccc2)CC1)c1ccccc1	103.0	-43.2	98.0	-4.5
N#Cc1nc(-c2ccccc2)oc1NCC1CCCO1 (stereo not given)	104.0	-3.2	98.0	99.1
COCCNCc1cc(C)ccc1OC	107.0	21.3	97.0	4.5
O=C(c1cccc(Cl)c1)N(Cc1cc2ccccc2[nH]c1=O)c1ccccc1	105.0	2.2	101.0	3.6

Four compounds from above, reduced to PV pol inh intensity, PV pol inh and Mtb MenB inh:
smiles	PV pol inh intensity	PV pol inh	Mtb MenB inh
Cc1cccc(NC(=O)CSc2nc3c(c(-c4ccco4)c2C#N)CCCC3)c1C	109.0	105.0	-26.2
CN(C)C(=O)Oc1ccc2ccc(OC(=O)N(C)C)cc2c1	103.0	102.0	-16.9
O=C1CC(c2ccccc2)Cc2nc(NC3CC3)ncc21 (stereo not given)	101.0	105.0	-37.1
Cc1[nH]c(=O)[nH]c(=O)c1NC(=O)CSc1nc2c(C)cccc2cc1C#N	99.0	99.0	-4.0

Other compounds follow.
Compound	PV pol inh	Mtb MenB inh	PV pol inh intensity	MbtI inh
CCOC(=O)c1csc(-c2ccccc2F)n1	104.0	-55.7	102.0	48.6
CCCN1C(=O)/C(=N\OCC(=O)Nc2ccc(S(=O)(=O)N3CCOCC3)cc2)c2ccccc21	105.0	-15.4	112.0	-28.1
Cc1ccc(C)c(OCC(=O)N/N=C\c2cccn2C)c1	98.0	5.2	100.0	0.1
O=C(c1cc2ccccc2cc1O)N1CCOCC1	97.0	1.9	96.0	6.1
Cc1cc(Cl)cc2sc(NC(=O)C3CC3)nc12	101.0	-28.9	109.0	15.4
CS(=O)(=O)N1CCC(C(=O)Nc2ccccc2)CC1	99.0	-7.1	103.0	-3.1
O=c1c2ccccc2c(-c2nnc(SCC3CCCCO3)o2)nn1Cc1ccccc1 (stereo not given)	102.0	-15.0	107.0	3.3
Cc1ccc(NC(=S)N(CCCN2CCOCC2)C(C)c2cc3ccccc3o2)cc1C (stereo not given)	100.0	4.8	100.0	-0.1
COc1cc2c(cc1OC)C(C)NCC2 (stereo not given)	102.0	-5.5	100.0	-4.5
Cc1csc(NC(=O)C2CCC(CNS(=O)(=O)c3cccc4nsnc34)CC2)n1 (stereo not given)	99.0	-12.8	101.0	-0.3
Cc1ccc(-n2nnnc2SCc2nc3sc4c(c3c(=O)[nH]2)CCCC4)c(C)c1	132.0	-1.2	141.0	37.5
CNc1[nH]cnc(=S)c1N	99.0	-1.8	98.0	68.8
COc1cccc(NCc2nnc(SCC(=O)NC3CCS(=O)(=O)C3)n2C2CCCCC2)c1 (stereo not given)	104.0	-8.3	107.0	3.1
CC(C)CNC(=O)c1cccc(Cl)c1	102.0	28.2	104.0	-21.9
CC(C)c1ccc(NCC(O)CSc2ccccc2)cc1 (stereo not given)	108.0	-9.0	110.0	-6.9
Cc1ccc2c(CSc3nc(N)cc(N)n3)cc(=O)oc2c1C	107.0	2.4	104.0	9.8
Cc1cc(C)c(C(=O)O)c(Cl)n1	80.0*	-25.6	76.0*	0.3
CC(C)N(CCC#N)C(=O)Nc1ccccc1Cl	102.0	-11.4	104.0	-7.7
CCOC(=O)CSc1nc2c(sc3ccccc32)c(=O)n1Cc1ccccc1	103.0	-16.7	98.0	3.8
Cc1oc2c(c1C(=O)NCCO)CCCC2	103.0	-19.7	102.0	-0.2
Cc1cc(NC(=O)Cn2c(=O)/c(=C\c3cccs3)s/c2=C\C(=O)C(C)(C)C)no1	130.0	-30.4	136.0	-4.0
N#Cc1c2ccccc2c(C#N)c2ccccc12	97.0	-85.3	101.0	34.8
Cc1cc(-c2ccccc2)nc2cc(C(=O)N(C)C3CCCCC3)nn12	103.0	-9.4	104.0	.
CC(=O)Oc1ccc(C(=O)c2ccccc2)c(OC(C)=O)c1	100.0	-12.0	104.0	13.6
O=C1NC(=O)C(C(CC(=O)c2ccccc2)c2ccccc2)C(=O)N1 (stereo not given)	101.0	-26.7	104.0	-4.5
Cc1ccc(NC(=O)CN(C)Cc2nnc(-c3cc4c(s3)CCCC4)o2)cc1	103.0	-29.5	108.0	-15.4
O=S(=O)(NC1=NCC2CCCC2N1)c1ccccc1 (stereo not given)	109.0	-1.8	113.0	-6.0
CCOC(=O)c1cc(C)[nH]n1	103.0	-7.8	107.0	-1.6
O=C(Nc1ccccc1)c1ccc2c(c1)C(=O)N(CC1CCCO1)C2=O (stereo not given)	101.0	5.1	100.0	-6.0
c1ccc2c(c1)OCC(CSc1nc3ccccc3s1)O2 (stereo not given)	100.0	0.0	101.0	77.0
COc1ccc2nc(C)cc(-n3nc(C)cc3C)c2c1	104.0	2.1	99.0	99.2
COc1ccc(/C=C2\SC(=S)N(CCC(=O)N(C)C3CCS(=O)(=O)C3)C2=O)cc1 (stereo not given)	.	-27.8	.	-10.8
CCCC/C(C)=N/N1C(C)CCCC1C (stereo not given)	104.0	-5.5	108.0	-5.5
Cc1cccc2c1-c1sc(C(=O)Nc3ccc(S(N)(=O)=O)cc3)cc1CO2	101.0	-17.4	108.0	-267.6
CCc1noc(C)c1C(=O)NCCN(C)C	101.0	-22.3	101.0	41.6
Cc1cc2nc(CSc3ccccc3NC(=O)CC(C)C)cc(=O)n2o1	101.0	-28.1	102.0	16.0

Filtered by structure, the entries above with bromine (three)
Compound	PV pol inh	Mtb MenB inh	PV pol inh intensity	MbtI inh
O=C(CCCSc1nnc(-c2ccccc2)o1)c1ccc(Br)cc1	105.0	-11.8	109.0	-10.0
N#C/C(=C/c1ccc(Br)o1)c1ccc(C(=O)O)cc1	103.0	-25.1	109.0	-11.0
Cc1nonc1-c1cn2cc(Br)cc(Br)c2n1	99.0	-10.3	103.0	-21.5

(list continues)
Compound	PV pol inh	Mtb MenB inh	PV pol inh intensity	MbtI inh
CCCCCOc1ccc(C2N=C(N)Nc3nc4ccccc4n32)cc1 (stereo not given)	103.0	-3.1	101.0	-4.7
c1coc([C@H]2Nc3ccccc3[C@H]3OCC[C@@H]23)c1	104.0	-2.1	108.0	113.7
CCCN1C(=O)S/C(=C\C(=O)O)C1=O	104.0	-25.5	97.0	21.2
Cc1c(NC(=S)NCCCN2CCOCC2)c(=O)n(-c2ccccc2)n1C	100.0	-5.0	101.0	-4.2
NC(=O)COC(=O)c1ccc2c(c1)C(=O)N(Cc1ccco1)C2=O	103.0	1.2	106.0	3.3

Screening results: PubChem, ICCB-Longwood Screening Facility, Harvard Medical School
